Compound activity as filed in PubChem BioAssay.
PrP 5UTR inh: inhibition of PrP 5' UTR reporter expression | inhibition, % (test concentration not listed) | cell-based PrP 5' UTR mRNA reporter, plate reader | AID 488862, 2010 | 340,000 compounds, 0.35% hits;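 active means every replicate at 50% or more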;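 further: 0 = median of the neutral control wells; tested in H4 reporter cells; numbers are from one replicate; inactives centre near -14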
Sa ugtP lethal: growth inhibition of ugtP-null S. aureus, primary screen, RN4220 ugtP deletion, OD600 | 16 h; some inactives read as strong as hits | growth inhibition, % (concentration not given with the values) | 330,000 compounds, 0.54% hits | AID 1259309, 2017;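 active means z-score under -3 and OD600 up to 0.15 on both plates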;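 further: plate controls were untreated wells for no effect and antibiotic for full effect; wells of about 80 µL received 100 nL stock; the first replicate is given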
Mtb hypoxia rep: PubChem AID 1159583 | M. tuberculosis hypoxia-regulated fluorescent reporter, fluorescence | fluorescence inhibition, % (test concentration not listed) | 300,000 compounds, 0.1% hits;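 active means 35 to 45% if threefold the growth effect, above 45% if 1.5-fold the growth effect; inactive means the rest, general growth blockers included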;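 further: wells of about 50 µL received 100 nL stock; 0% = vehicle wells and 100% = reference inhibitor wells; whole bacteria with a GFP reporter of the hypoxia response; strong numbers were not always called active; many hits fall short of the cut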
Sa RN4220 lethal: growth inhibition of S. aureus RN4220, primary screen, OD600; 16 h; inhibition, % (test concentration not listed); 330,000 compounds, 0.33% hits; AID 1259311, 2017;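 active means z-score of -3 or lower and OD600 up to 0.18 on both plates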;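 further: plate controls were untreated cells for no effect and reference antibiotic for full effect; stock transfer was 100 nL into about 80 µL; one replicate is shown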
BJeLR viability: MLPCN primary cell-based screen for lethality selective to Ras in HRASV12 cells. BJeLR (HRASV12) viability, CellTiter-Glo ATP luminescence, 48 h; reference of the scale not given here. inhibition, % (no concentration beside the values). 300,000 compounds, 0.17% hits. AID 1554, 2009;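 active means replicate mean above 50%; inconclusive means above 50% but judged a plate artefact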;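 further: 50 nL library stock added to about 25 µL; numbers are from one replicate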
Autofluor counter: counter-screen for toxin protease inhibitors: compound fluorescence; 360,000 compounds, 3.1% hits; fluorescence intensity (no concentration beside the values); compound autofluorescence counterscreen, microsphere flow cytometry; hits give high values;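 active means at least 3 SD above the mean of all compounds, about 16000 in these data; inconclusive means too few beads counted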;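 further: 100 nL of 1 mM stock went into each well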
Mtb hypoxia rep growth: also measured in Mtb hypoxia rep; calls as there; growth inhibition, %; measured here: M. tuberculosis growth (absorbance);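 0% = vehicle and 100% = reference antibiotic; read after six days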
* hit, by the source's call; u = inconclusive; x = not tested or not shown; & = joins results of further samples.

Compound,PrP 5UTR inh,Sa ugtP lethal,Mtb hypoxia rep,Mtb hypoxia rep growth,Sa RN4220 lethal,BJeLR viability,Autofluor counter
CC(C)CNC(=O)c1cccc(NC(=O)C2CCCO2)c1 (centres undefined),-6.9,2.5,-11.9,0.4,4.5,-14.1,x
Cc1sc2nc(CN3CCCC3)nc(N3CCN(S(=O)(=O)c4ccccc4)CC3)c2c1C,-18.3,-4.0,-6.8,9.9,-2.0,x,5011
Cc1ccc(C(=O)Nc2ncc3c(n2)CC(c2ccco2)CC3=O)cc1 (centres undefined),-11.5,-5.6,2.8,1.4,-3.3,-11.8,8019
COc1ccc(NC(=O)c2ccc(C)cc2Cl)c([N+](=O)[O-])c1,-57.9,7.8,x,x,1.3,3.9,4240
Cn1c(=O)c2c(-c3cccc(Br)c3)c(C#N)c(N)nc2n(C)c1=O,-48.3,8.0,18.0,5.0,-2.0,10.7,4551
Cc1ccc(CC(=O)N2CCOCC2)cc1,-32.8,-2.0,x,x,4.9,1.1,4126
CCc1cc2cc3c(cc2nc1SCC(=O)Nc1nccs1)OCO3,-5.9,-7.2,-1.9,-5.8,6.6,2.0,6195
CCCc1nc2sc3c(=O)n(N)cnc3c2c2c1CCCC2,-0.5,13.7,2.8,5.0,2.7,0.6,2061
CC(C)COP(=O)(c1ccc(N(C)C)cc1)C(O)c1cccnc1 (centres undefined),-21.0,13.4,0.9,2.1,3.4,1.6,4314
CC(C)C[C@H](NC(=O)N1CC(=O)Nc2ccccc21)C(=O)N[C@H](Cc1ccccc1)C(=O)O,-21.6,4.9,x,x,5.1,-3.3,5548
CCN(C(=O)CSc1cccc[n+]1[O-])c1ccccc1,-11.4,-0.1,0.5,3.4,2.9,x,8636
CS(=O)(=O)N1CCc2cc(S(=O)(=O)N3CCN(Cc4ccc5c(c4)OCO5)CC3)ccc21,-19.3,4.1,1.6,-8.1,3.5,2.8,8046
CC1CN(C(=S)NC(=O)c2ccccc2)CC(C)O1 (centres undefined),-15.4,3.2,0.6,-2.4,-1.3,-3.6,5297
C/C(Cl)=C/CSc1nnc2n(N)c(=O)c3ccccc3n12,-28.2,-2.8,-2.2,3.7,1.1,-2.8,23180*
Cc1ccc(SCCNC(=O)c2ccc(C)c(S(=O)(=O)Nc3cccc(C)c3)c2)cc1,12.2,-13.9,5.5,11.5,20.5,5.8,10351
Cc1cccc(NC(=O)Cn2cc([N+](=O)[O-])cn2)n1,-21.0,3.9,-1.9,-1.2,6.2,3.4,4350
CCOC(=O)c1cc2c(n(-c3ccc(Cl)cc3)c1=O)CCCC2=O,-16.2,11.3,10.3,-1.1,5.3,2.0,4809
NC(N)=N/N=C/c1ccc(Br)cc1,-25.7,x,x,x,x,-2.0,2565
CC(C)(C)C(=O)Cn1c(=N)n(Cc2ccccc2Cl)c2ccccc21,-18.5,-0.4,11.0,7.6,-1.7,11.8,3886
CCN1CCN(c2cc(=O)n(Cc3ccc(F)cc3)c(=O)[nH]2)CC1,-5.4,8.6,-6.3,9.7,4.2,-1.8,2419
Cc1cc(C)cc(OCC(=O)NNC(=O)CN2C(=O)c3ccccc3C2=O)c1,14.6,7.8,0.3,-5.7,8.0,x,1942
O=C(Nc1ncnc2sc3c(c12)CCCC3)c1ccncc1,-27.7,-1.4,9.7,8.2,7.0,1.1,3971
Cc1ccccc1NC(=O)c1nc[nH]c1C(=O)NCc1ccccc1,-10.5,-14.9,12.9,11.9,3.0,-6.6,3386
COc1cc2ccccc2cc1C(=O)NC(=S)Nc1nnn(C)n1,-0.7,-8.7,2.4,2.3,6.7,-10.4,2446
O=C1NC(=Nc2cccc(Cl)c2)SC1Cc1cccc(Cl)c1Cl (centres undefined),-9.3,-14.8,2.9,7.0,-6.1,5.2,5080
N#CC[C@H](c1ccccc1)N1CCN(Cc2ccccc2)CCC1=O,-30.0,x,x,x,x,-1.4,3763
COc1ccc(CN(C)C(=O)CNC(=O)CNC(=O)c2ccc(Cl)cc2Cl)cc1F,-30.7,10.5,7.6,2.1,-5.2,4.5,3632
COc1ccc2c(=O)c(-c3ccccc3)coc2c1,-31.7,5.2,x,x,8.4,10.4,6027
CCc1ccc(OCCNC(=O)c2ccco2)cc1,-18.3,3.9,12.7,11.2,2.6,1.5,6205
O=C(O)c1ccc2c(=O)n3c(nc2c1)/C(=C/c1cccc(Cl)c1Cl)CCCC3,-19.9,1.0,-5.5,-2.6,2.9,-3.2,8469
Cc1ccc(S(=O)(=O)N(CC(=O)Nc2ccc(Cl)c([N+](=O)[O-])c2)C2CCCCC2)cc1,-12.8,-23.8,-2.3,3.3,2.6,-6.9,1855
c1ccc(-c2nc(C3CCCCC3)c3ccccc3n2)cc1,-6.4,29.0,6.9,4.9,-4.1,-1.1,3636
NC(=O)C1(c2ccccc2)CCC(=O)N1c1ccccc1 (centres undefined),-9.3,4.9,4.6,-6.0,3.7,3.8,4081
Cc1onc(-c2c(Cl)cccc2Cl)c1C(=O)N1CCc2ccccc21,-5.7,-7.8,14.1,10.6,9.9,6.5,11572
COc1ccc(-c2oc(/N=C/N3CCCC3)c(C#N)c2-c2ccc(OC)cc2)cc1,-10.9,x,x,x,x,-7.0,2687
O=C(Nc1ccc(Cl)cc1-c1nc2ccccc2s1)c1ccco1,-51.8,-0.2,5.5,3.9,-0.3,-4.1,9864
Cc1cc(Nc2ccccc2F)n2ncnc2n1,17.0,2.3,x,x,4.0,-6.3,4360
COc1ccc(S(=O)(=O)N2CCc3ccccc32)cc1[N+](=O)[O-],-13.6,-2.1,3.9,-1.1,5.1,-0.9,3635
O=C(Cc1ccc(S(=O)(=O)N2CCOCC2)s1)N1CCN(S(=O)(=O)c2cccc([N+](=O)[O-])c2)CC1,-8.8,5.7,-2.5,-5.9,3.5,1.6,u
COc1cccc(NC(=O)C(=O)N2CCOCC2)c1,-64.3,-3.3,10.0,2.8,-12.3,0.2,3406
O=C(CSc1ncnc2ccccc12)NCc1ccco1,-1.0,-3.5,7.8,7.6,4.6,3.0,3357
CP(C)(=O)CCP(=O)(c1ccccc1)c1ccccc1,-31.1,2.6,-2.4,-4.9,2.3,9.8,2477
COc1cccc(C(=O)OCC(=O)Nc2cc(C)c(C)cc2[N+](=O)[O-])c1,3.3,-5.8,5.1,3.4,6.2,-5.0,2020
O=S(=O)(NCc1ccc(Cl)cc1)c1ccc(Cl)nc1,-3.0,-11.0,9.6,11.6,0.4,7.4,2788
COc1ccccc1N(CC(=O)Nc1ccccc1C(=O)NC(C)C)S(C)(=O)=O,-16.4,-3.4,15.8,16.0,-11.3,-2.0,2893
CNc1ccc([N+](=O)[O-])cc1-c1nc2ccccc2[nH]c1=O,-11.8,-0.6,-3.8,-1.2,3.8,3.1,3393
C[C@H](NC(=O)c1ccccc1Cl)C(=O)OCCOc1cccc(Cl)c1,-19.7,6.1,1.6,12.8,2.0,-3.4,4088
CCCC(=O)Nc1ccc2c(c1)COC2=O,-15.2,1.8,-12.8,-1.2,5.7,2.1,4424
CC(=O)N1CCN(c2ccc(S(=O)(=O)NCCN(C(C)C)C(C)C)cc2[N+](=O)[O-])CC1,6.1,9.9,17.9,-3.3,7.1,-11.3,2469
Cc1ccc(-c2nc(CSCC(=O)NCC3CCCO3)c(C)o2)cc1 (centres undefined),-14.0,1.8,10.3,6.6,2.6,1.8,5660

Further records follow.
Compound,PrP 5UTR inh,Sa ugtP lethal,Mtb hypoxia rep,Mtb hypoxia rep growth,Sa RN4220 lethal,BJeLR viability,Autofluor counter
Cn1c2ccccc2c2nnc(SCC(=O)NC3CCCC3)nc21,-11.2,20.0,3.8,-0.3,1.9,2.2,3743
Cc1c(OCC(F)(F)F)ccnc1CSc1nc2ccccc2[nH]1,-81.8,-0.5,x,x,3.5,4.1,4102
O=C(Cn1cnc2ccccc21)Nc1ccc(C(=O)O)cc1,1.5,12.8,3.1,-4.9,4.4,-4.5,6741
CCOC(=O)c1ccccc1NC(=O)CSc1nccn1C,-4.0,-4.2,-1.7,-5.1,0.0,10.0,x
CC1CCN(C(=O)COC(=O)C2CCN(S(=O)(=O)c3ccc4c(c3)OCCO4)CC2)CC1,-8.6,-1.1,-0.7,9.8,0.0,1.4,6051
COc1cc(C(c2c(C)[nH][nH]c2=O)c2c(C)[nH][nH]c2=O)ccc1OC(C)C,-4.8,5.9,15.1,11.7,3.8,10.3,2480
O=C(Cc1cccs1)N1CCN(c2cccc(Cl)c2)CC1,-10.3,-4.5,4.8,1.3,-0.4,-0.2,4644
C=CC[n+]1c(-c2ccc(OCC)cc2)csc1NNC(=O)Nc1ccccc1,-7.4,12.9,8.5,18.8,6.1,-9.8,11441
O=C(ON=C(c1ccccc1)c1ccncc1)c1ccccc1[N+](=O)[O-],x,2.4,5.9,4.3,0.2,x,x
O=C(O)CCC(=O)NNc1ncnc2ccccc12,-8.0,5.0,8.4,8.2,7.1,-0.1,2245
S=C(NCC1CCCO1)Nc1cccc(Cl)c1 (centres undefined),-33.2,3.1,7.9,5.9,1.8,2.6,4473
COc1ccc(NC(=O)C2c3cc(OC)c(OC)cc3C(=O)N(C)C2c2cccnc2)cc1OC (centres undefined),-23.0,-5.4,1.2,3.6,1.2,-6.9,8893
COc1ccc(OC)c(-c2nnc(SCC(=O)N3CCOCC3)o2)c1,-7.8,7.7,x,x,1.8,-1.8,4414
O=C(NC1CC1)C1=CC(c2ccc(C(F)(F)F)cc2)CC(OCc2ccc(CO)cc2)O1 (centres undefined),x,2.2&0.3,2.9&9.1,1.2&9.6,3.0&4.3,x,x
CNC(=S)NNC(=O)c1oc2nc(-c3ccccc3)cc(-c3ccco3)c2c1N,-15.4,-1.1,5.3,6.4,1.7,-13.0,6516
O=C(CCSc1nc(-c2ccc3c(c2)OCO3)cc(C(F)(F)F)n1)NCc1ccco1,1.3,12.6,7.0,4.3,-3.6,9.9,5844
COCCN(Cc1ccccc1)C(=O)c1cccc(S(=O)(=O)N2CCN(c3ccc(F)cc3)CC2)c1,-11.4,4.3,8.9,1.0,-3.8,17.0,5255
Cc1sc2nc(CSc3ccccc3)nc(N3CCC(C(N)=O)CC3)c2c1C,16.7,-16.5,-3.8,-2.0,-2.9,-5.2,3995
CC(C)N1C(=O)S/C(=C/c2ccccc2OCc2ccc(C(=O)O)cc2)C1=O,-14.2,6.3,9.1,6.9,30.1,-4.1,4666
Cc1ccc(S(=O)(=O)NCCC(=O)NNC(=O)COc2ccccc2Cl)cc1C,6.7,0.8,5.2,9.8,1.0,x,5762
CCOC(=O)NNC(=O)NCCCCCCNC(=O)NNC(=O)OCC,-26.5,-2.4,-8.4,-0.3,0.9,6.9,3309
CCOc1ccc(C2CC(=O)NC2=O)cc1 (centres undefined),-20.1,7.2,16.1,-4.8,2.1,-9.6,3131
O=c1[nH]c(CN2CCCC2)nc2sc3c(c12)CCC3,3.1,-13.3,-6.5,12.5,-1.0,2.2,3311
Cc1nn(-c2ccccc2)c2sc(C(=O)N(CC(=O)NC3CCCC3)Cc3ccco3)cc12,-7.0,3.5,x,x,2.1,2.1,3656
COc1cccc(/C=C/C(=O)NCc2cn3cc(Cl)ccc3n2)c1,-27.1,3.5,13.6,14.0,5.1,-2.0,3372

4 structures out of the list, sorted by molar mass, ascending:
Compound,PrP 5UTR inh,Sa ugtP lethal,Mtb hypoxia rep,Mtb hypoxia rep growth,Sa RN4220 lethal,BJeLR viability,Autofluor counter
NC(=O)C1(c2ccccc2)CCC(=O)N1c1ccccc1 (centres undefined),-9.3,4.9,4.6,-6.0,3.7,3.8,4081
CC(C)CNC(=O)c1cccc(NC(=O)C2CCCO2)c1 (centres undefined),-6.9,2.5,-11.9,0.4,4.5,-14.1,x
Cc1ccccc1NC(=O)c1nc[nH]c1C(=O)NCc1ccccc1,-10.5,-14.9,12.9,11.9,3.0,-6.6,3386
Cn1c(=O)c2c(-c3cccc(Br)c3)c(C#N)c(N)nc2n(C)c1=O,-48.3,8.0,18.0,5.0,-2.0,10.7,4551
